Screening data: PubChem, National Center for Advancing Translational Sciences (NCATS)
TRPML1 agonist = qHTS for Agonists of the Human Mucolipin Transient Receptor Potential 1 (TRPML1) | Mucolipin-1 (Homo sapiens), Q9GZU1 | TRPML1-expressing cells, Ca2+ dye fluorescence, FDSS; host cell line not named in the record; reference of the full effect not given here | activation, % (no concentration beside the values) | hit rate 0.12% among 410,000; in the data active = activation above about 50%; inconclusive = about 30% to 50%; inactive = below about 30%; further: 0% is about no effect; the text of the record puts the active cut at 80%
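In this qHTS format, compounds were pin-transferred onto Ca8-dye-loaded TRPML1-DL cells induced with Tet overnight, and intracellular Ca2+ fluorescence was recorded kinetically for 110 s after a 10 s baseline. A subsequent 4uM final 54-4 (EC80) addition followed by a second 110 s read served as the antagonist phase.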
Sfp inh = qHTS Assay for Inhibitors of Bacillus subtilis Sfp phosphopantetheinyl transferase (PPTase). Biochemical Sfp PPTase activity, qHTS. Potency, µM, for the others: max response, negative = inhibition, most hits filed as inhibitors. hit rate 3.5% among 310,000. AID 1490, 2009; active means well fitted inhibition curve with a large enough effect; inconclusive means small, poorly fitted or top-dose-only effect, or another doubt; inactive means no such curve, though single readings can be large or run the other way;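 further: the enzyme is Sfp with the accession as filed and its product quenches rhodamine fluorescence; potency means the concentration at half of the fitted maximal effect; 0% = enzyme reaction without inhibitor and -100% = no enzyme wells; top concentration of the series not given in the record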
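Compounds were incubated with enzyme (final 15 nM) for 15 min at room temperature before substrate addition started the reaction. Fluorescence at 525 nm excitation, 598 nm emission was recorded immediately and after 30 minutes.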
PINK1 expr mod = A Quantitative High throughput Screen to Identify Chemical Modulators of PINK1 Expression; PINK1 immunofluorescence, high-content cytometry, 24 h; Potency, µM (titrated, usually from 76.6 µM), for the others: at the top dose activation (PINK1 increase), most hits filed as activators; hit rate 0.2% among 410,000; AID 624263, 2012; active = well fitted activation curve with a large enough effect; inconclusive = small, poorly fitted or top-dose-only effect; inactive = flat fitted curve, though single readings scatter; cell line not stated here;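 further: potency means the concentration at half of the fitted maximal effect; % of control where 0% means no effect; nearly all actives have a fitted effect of over 65% in size; a mitochondrial uncoupler was the plate control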
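Readout is PINK1 immunofluorescence, quantified alongside mitochondrial, cell and nuclear markers by laser-scanning microplate cytometry. Cells from a stable line were exposed to compound titrations (5 concentrations) for 24 hours, with CCCP controls.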
TRPML1 inh = qHTS for Inhibitors of the Human Mucolipin Transient Receptor Potential 1 (TRPML1); AID 624415, 2012; TRPML1-inducible cells, Ca2+ dye fluorescence, FDSS; stronger effect = lower value; inhibition of EC80 agonist-evoked calcium signal; hit rate 0.02% among 390,000; activity change, negative = inhibition, % (no concentration beside the values); in the data active means activity change below about -50%; inconclusive means about -30% to -50%; inactive means above about -30%;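 further: stimulus is agonist 54-4 at its EC80 concentration; on the % scale 0 is the no-effect control and ±100 the full control effect; compound concentration not given in the record; the text of the record puts the active cut at -80%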
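Tet-induced TRPML1-DL cells loaded with Ca8 no-wash calcium dye were read kinetically on FDSS. Compound addition was followed by EC80 agonist 54-4 (4 uM final); inhibition was read over 110 s.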
TRPV1 potentiator = HTS Assay for Compounds that Act as Potentiators of the Vanilloid Receptor 1; Transient receptor potential cation channel subfamily V member 1 (Homo sapiens), Q8NER1; TRPV1-expressing cells, Fluo-8 calcium influx, capsaicin EC20 potentiation; host cell line not named in the record; control for the full effect not named in the record; potentiation, % at 8.33 µM; hit rate 0.02% among 320,000; AID 540277, 2011; active means potentiation above 80%; inconclusive means 30% to 80%; inactive means below 30%; further: 0% is about no effect
Target sequence (Q8NER1 whole entry, looked up): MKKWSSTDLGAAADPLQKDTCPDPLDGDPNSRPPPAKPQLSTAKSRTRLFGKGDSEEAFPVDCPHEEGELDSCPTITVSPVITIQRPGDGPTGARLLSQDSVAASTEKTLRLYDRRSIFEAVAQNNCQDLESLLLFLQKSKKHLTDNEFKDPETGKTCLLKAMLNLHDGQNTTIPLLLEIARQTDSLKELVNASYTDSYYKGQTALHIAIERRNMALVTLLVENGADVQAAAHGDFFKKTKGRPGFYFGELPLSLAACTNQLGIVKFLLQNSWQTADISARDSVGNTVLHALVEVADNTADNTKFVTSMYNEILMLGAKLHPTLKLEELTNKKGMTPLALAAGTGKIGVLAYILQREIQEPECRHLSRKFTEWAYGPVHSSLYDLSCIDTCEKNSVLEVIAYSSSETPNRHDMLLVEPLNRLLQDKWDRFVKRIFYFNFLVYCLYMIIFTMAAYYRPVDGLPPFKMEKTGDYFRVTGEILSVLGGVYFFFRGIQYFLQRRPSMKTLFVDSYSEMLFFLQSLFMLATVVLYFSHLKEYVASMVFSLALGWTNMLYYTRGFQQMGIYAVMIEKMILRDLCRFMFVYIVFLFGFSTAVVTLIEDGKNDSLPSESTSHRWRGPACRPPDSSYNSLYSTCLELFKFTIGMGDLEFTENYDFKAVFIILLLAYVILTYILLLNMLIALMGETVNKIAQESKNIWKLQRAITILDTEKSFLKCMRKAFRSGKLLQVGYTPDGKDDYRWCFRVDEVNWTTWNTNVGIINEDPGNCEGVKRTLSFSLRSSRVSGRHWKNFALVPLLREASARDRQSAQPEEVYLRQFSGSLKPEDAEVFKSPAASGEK
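Fluo-8 calcium influx in TRPV1-expressing cells, kinetic read (ex 480/em 520 nm). Compound added and read 3 min for agonist activity, followed by capsaicin at EC20 final and 2 min further read for enhancement.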
ClpP mod = qHTS Assay for Activators of ClpP; purified B. subtilis ClpP, FRET peptide cleavage, 20 min; hit rate 1.9% among 340,000; ATP-dependent Clp protease proteolytic subunit (Bacillus subtilis (strain 168)), P80244; Potency, µM (titrated, usually from 57.5 µM), inactives show at the highest dose activity change, negative = active; active = well fitted falling curve with a large enough effect; inconclusive = small, poorly fitted or top-dose-only effect; inactive = no such curve, though single readings can be large or run the other way; further: potency means the concentration at half of the fitted maximal effect; the source files actives as falling curves though it sought activators and does not explain the sign; nearly all actives have a fitted effect of over 65% in size; many hits overshoot -100%
Target sequence (P80244 whole entry, looked up): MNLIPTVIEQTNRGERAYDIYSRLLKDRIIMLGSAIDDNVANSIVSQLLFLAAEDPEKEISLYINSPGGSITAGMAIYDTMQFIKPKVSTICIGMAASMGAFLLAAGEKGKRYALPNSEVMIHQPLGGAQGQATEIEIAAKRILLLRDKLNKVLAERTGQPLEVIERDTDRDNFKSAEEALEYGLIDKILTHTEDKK
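Purified B. subtilis ClpP, 10 microg/mL final in Tris/HCl pH8 with KCl, BSA, glycerol and Tween-20, cleaved an Abz/nitrotyrosine-quenched decapeptide. Fluorescence (ex 320, em 430) was read at 0 and 20 min at room temperature. Delta was normalized to 5.8 microM ADEP and DMSO/no-enzyme controls.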
Menin MLL FP FL = qHTS Assay for Inhibitors Targeting the Menin-MLL Interaction in MLL Related Leukemias: Competition With Fluorescein Labeled MLL-derived Peptide; Fluorescence polarization, fluorescein-MLL peptide displacement from menin; FP activity change, % at 61.4 µM; 290,000 tested, under 10 active; inconclusive = falling polarisation curve, or a change in total fluorescence; inactive = total fluorescence flat and polarisation flat or rising; no compound was filed as active; the % refers to the polarisation; negative = inhibition;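 further: % of control where 0% means no effect; inhibitors lower the polarisation; unlabelled MLL peptide was the positive control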
* marks the source's active call; other numbers are inactive results; [ ] = remark or other dose.

O=C(CSc1nnc(NC(=O)C2CC(=O)N(c3ccc(F)cc3)C2)s1)NCC1CCCO1 (configuration not stated) was read as TRPML1 agonist 0.2, Sfp inh -2%, PINK1 expr mod 1.8%, TRPML1 inh -6, TRPV1 potentiator 1, ClpP mod 1.0% and Menin MLL FP FL -1.8.
Screening O=C(CCN1C(=O)/C(=C/c2ccc(F)cc2)SC1=S)NCCc1cnc[nH]1 returned TRPML1 agonist -0.5, Sfp inh -13%, PINK1 expr mod 0.4%, TRPML1 inh 22, TRPV1 potentiator 2 and ClpP mod 1.7%.
Cc1cc(Cl)ccc1Oc1ncnc2onc(C)c12 was read as TRPML1 agonist 1.2, Sfp inh 0%, PINK1 expr mod -0.6%, TRPML1 inh -5, TRPV1 potentiator -6, ClpP mod -0.7% and Menin MLL FP FL -0.4.
For O=C(c1ccc(-c2ccccc2)cc1)N1CCCC1 the results were TRPML1 agonist -0.8, Sfp inh 15%, PINK1 expr mod 0.8%, TRPML1 inh -7, TRPV1 potentiator -22, ClpP mod -1.4% and Menin MLL FP FL 4.6.
Cc1ccc(NC(=O)CCN2C(=O)C3CCCCC3C2=O)c(O)c1 (configuration not stated) was read as TRPML1 agonist 0.5, PINK1 expr mod -2.6%, TRPML1 inh 6 and TRPV1 potentiator -12.
For CC1(C)CC(=O)C(C=Nc2ccncc2)=C(O)C1 the results were TRPML1 agonist 0.4, PINK1 expr mod 6.5%[38.3 µM], TRPML1 inh -5 and ClpP mod -2.8%.
For Cc1c(C(=O)N2CCCCCC2)c(S(=O)(=O)N(Cc2ccccc2)C(C)(C)C)c(C)n1C the results were TRPML1 agonist 8.8, PINK1 expr mod 0.0%, TRPML1 inh 7 and ClpP mod 1.4%.
Cc1cc(C(=O)COC(=O)Cc2n[nH]c(=O)c3ccccc23)c(C)n1CC(F)(F)F was read as TRPML1 agonist -0.6, PINK1 expr mod -1.5%, TRPML1 inh -11, TRPV1 potentiator 11 and ClpP mod -0.8%.
For Cc1ccccc1NC(=O)C(=Cc1ccc(C(=O)O)cc1)C(=O)Nc1ccccc1C the results were TRPML1 agonist -0.2, Sfp inh -21%, PINK1 expr mod -2.3%, TRPML1 inh 5, TRPV1 potentiator -8 and Menin MLL FP FL -1.6.
O=C1CCC(C(=O)OCC(=O)c2ccccc2)N1 (configuration not stated) was read as TRPML1 agonist -0.1, Sfp inh 10%, PINK1 expr mod 1.8%, TRPML1 inh -12, TRPV1 potentiator -8, ClpP mod -0.5% and Menin MLL FP FL 0.9.
For CC(C)NC(=O)COc1ccc(/C=N/NS(=O)(=O)c2ccccc2)cc1 the results were TRPML1 agonist -0.5, Sfp inh 3%, PINK1 expr mod 3.1%, TRPML1 inh 4, TRPV1 potentiator 19, ClpP mod -0.2% and Menin MLL FP FL 1.8.
COc1ccc(NC(=O)COC(=O)c2cc(C)oc2C)cc1OC was read as TRPML1 agonist 0.1, PINK1 expr mod -1.3%, TRPML1 inh -2, TRPV1 potentiator 5 and ClpP mod 0.5%.
O=C(Nc1ccc(Br)cc1)c1cccc(N2C(=O)C3C4CCC(C4)C3C2=O)c1 (configuration not stated) was read as TRPML1 agonist 1.4, Sfp inh 12%, PINK1 expr mod 1.8%, TRPML1 inh -6, TRPV1 potentiator -11, ClpP mod -0.7% and Menin MLL FP FL 2.0.
`Cn1c(N2C(=O)CC(Cc3ccccc3)C2=O)nc2ccccc21` (configuration not stated) gave TRPML1 agonist -0.5, Sfp inh 3%, PINK1 expr mod 2.9%, TRPML1 inh -3, TRPV1 potentiator -29, ClpP mod 1.2% and Menin MLL FP FL -0.4.
O=C(CN1C(=O)c2cccc3cccc1c23)NCc1cccnc1 was read as TRPML1 agonist -0.4, Sfp inh 10%, PINK1 expr mod 2.2%, TRPML1 inh 15, TRPV1 potentiator -1, ClpP mod -2.9% and Menin MLL FP FL 1.2.
CN1CCN(S(=O)(=O)c2cccc(C(=O)N(Cc3ccccc3)c3ccccc3)c2)CC1 was read as TRPML1 agonist 0.3, PINK1 expr mod 1.7%, TRPML1 inh 2 and ClpP mod -3.1%.
`CCNC(=O)C1CC(=O)OC12CCCCC2` (configuration not stated) gave TRPML1 agonist 1.5, Sfp inh 2%, PINK1 expr mod -3.8%, TRPML1 inh -10, TRPV1 potentiator 5, ClpP mod -4.2% and Menin MLL FP FL 0.4.
`CCC(C)c1ccc(C(C)NC(=S)NCc2ccc(F)cc2)cc1` (configuration not stated) gave TRPML1 agonist 1.8, Sfp inh 24%, PINK1 expr mod inconclusive, TRPML1 inh 6, TRPV1 potentiator -3, ClpP mod -4.2% and Menin MLL FP FL -1.2.
`CCC(CC)NC(=O)c1ccc2c(c1)OCCO2` gave TRPML1 agonist -0.8, Sfp inh 7%, PINK1 expr mod -1.3%, TRPML1 inh 11, TRPV1 potentiator -5, ClpP mod 0.1% and Menin MLL FP FL 1.7.
`O=C(Nc1ccc(Br)cc1F)c1ccc2c(c1)N(Cc1ccccc1)C(=O)CS2=O` (configuration not stated) gave TRPML1 agonist 0.7, Sfp inh 12%, PINK1 expr mod 0.3%, TRPML1 inh 3, TRPV1 potentiator 7, ClpP mod -2.7% and Menin MLL FP FL 3.5.
Screening O=C(CNS(=O)(=O)c1cccc(C(F)(F)F)c1)Nc1ccccc1F returned TRPML1 agonist 1.5, Sfp inh 10%, PINK1 expr mod 10µM*, TRPML1 inh 20, TRPV1 potentiator -2, ClpP mod -1.1% and Menin MLL FP FL 2.0.
O=C(NCCCn1ccnc1)C(=O)NCc1ccc(Cl)cc1 was read as TRPML1 agonist 1.6, Sfp inh 28%, PINK1 expr mod -1.8%, TRPML1 inh 27, TRPV1 potentiator 2, ClpP mod -0.3% and Menin MLL FP FL -0.7.
CCOC(=O)N1CCN(C(=O)C(CC(C)C)NS(=O)(=O)c2ccc3c(c2)oc(=O)n3C)CC1 (configuration not stated) was read as TRPML1 agonist 0.3, Sfp inh 15%, PINK1 expr mod 1.5%[38.3 µM], TRPML1 inh 9, TRPV1 potentiator 19, ClpP mod 1.4% and Menin MLL FP FL 0.8.
COc1ccc(OC)c(CN2CCN(C(=O)c3cccc(S(=O)(=O)Nc4ccccc4OC)c3)CC2)c1 was read as TRPML1 agonist -0.5, PINK1 expr mod -0.2%, TRPML1 inh 17, TRPV1 potentiator -5 and ClpP mod -1.9%.
Screening Cc1nc(C(F)(F)F)ccc1C(=O)N1CCC1(C)C(=O)NS(=O)(=O)c1ccc(F)cc1F (configuration not stated) returned TRPML1 agonist 0.2, PINK1 expr mod 1.1% and ClpP mod -0.4%.
Screening CC(=O)Nc1c(O)cc(Br)c2nonc12 returned TRPML1 agonist -0.4, PINK1 expr mod 1.8% and ClpP mod 0.9%.
Screening COc1ccc(NC(=O)CSc2n[nH]c(-c3ccccc3)n2)cc1Cl returned TRPML1 agonist 0.3, PINK1 expr mod 0.6%, TRPML1 inh -4 and ClpP mod -1.7%.
`CCOC(=O)c1[nH]c2ccc(OC)cc2c1NC(=S)N1CCN(c2cccc(Cl)c2)CC1` gave TRPML1 agonist 0.2, Sfp inh 10%, PINK1 expr mod 4.3%, TRPML1 inh -12, TRPV1 potentiator -9, ClpP mod 3.4% and Menin MLL FP FL -0.9.
For Cc1c(C)c2ccc(OCC(=O)N3CCN(c4ccccc4)CC3)cc2oc1=O the results were TRPML1 agonist 0.1, Sfp inh 8%, PINK1 expr mod 0.5%, TRPML1 inh -6, TRPV1 potentiator 13, ClpP mod 3.2% and Menin MLL FP FL 1.3.
Screening CCOC(=O)c1c(C)[nH]c(C(=O)COC(=O)[C@H](C)N2C(=O)C3CCCCC3C2=O)c1C (some centres not stated) returned TRPML1 agonist 0.3, PINK1 expr mod -0.7% and TRPML1 inh -21.
`O=C(CSc1nnc(-c2cccnc2)s1)Nc1cccc(C(=O)O)c1` gave TRPML1 agonist 1.5, Sfp inh -8%, PINK1 expr mod 1.8%, TRPML1 inh 28, TRPV1 potentiator 3, ClpP mod -3.6% and Menin MLL FP FL 2.0.
`COc1ccc(C2(CNC(=O)C(c3ccccc3)c3ccccc3)CCOCC2)cc1OC` gave TRPML1 agonist -0.4, Sfp inh 18%, PINK1 expr mod -0.7%[38.3 µM], TRPML1 inh 2, TRPV1 potentiator -7, ClpP mod 0.8% and Menin MLL FP FL 2.0.
`Cc1cccc(NC(=O)c2cc(Cl)nc3ccccc23)c1` gave TRPML1 agonist 0.4, Sfp inh 7%, PINK1 expr mod 4.9%, TRPML1 inh -1, TRPV1 potentiator 8, ClpP mod 0.5% and Menin MLL FP FL 1.3.
`O=C(CSc1n[nH]c(=O)n1Cc1ccco1)Nc1ccccc1` gave TRPML1 agonist 3.7, Sfp inh 2%, PINK1 expr mod 0.9%, TRPML1 inh 14, TRPV1 potentiator -2, ClpP mod -0.3% and Menin MLL FP FL 3.2.
CCc1ccccc1N(CC)C(=O)c1cc2c(s1)-c1ccccc1OC2 was read as TRPML1 agonist 3.2, PINK1 expr mod 19%, TRPML1 inh 37 and ClpP mod 3.7%.
For C=C(C)C(=O)N1CC2(CC(c3cccc(NC(=O)CC(c4ccccc4)c4ccccc4)c3)=NO2)C[C@H]1C(N)=O (some centres not stated) the results were TRPML1 agonist 1.3, Sfp inh 6%, PINK1 expr mod 1.3%, TRPML1 inh 19, TRPV1 potentiator -27, ClpP mod -7.3% and Menin MLL FP FL 15.
`COc1cccc(-c2cc3nc(NCc4ccc(C)cc4C)n(C)c(=O)c3s2)c1` gave TRPML1 agonist 0.3, PINK1 expr mod 12%, TRPML1 inh -8 and ClpP mod inconclusive.

Quoted at random: 2 compounds from above
O=C(NCCCn1ccnc1)C(=O)NCc1ccc(Cl)cc1 was read as TRPML1 agonist 1.6, Sfp inh 28%, PINK1 expr mod -1.8%, TRPML1 inh 27, TRPV1 potentiator 2, ClpP mod -0.3% and Menin MLL FP FL -0.7.
O=C(CN1C(=O)c2cccc3cccc1c23)NCc1cccnc1 was read as TRPML1 agonist -0.4, Sfp inh 10%, PINK1 expr mod 2.2%, TRPML1 inh 15, TRPV1 potentiator -1, ClpP mod -2.9% and Menin MLL FP FL 1.2.
